Screening results (PubChem BioAssay)
Rango release inh: inhibitors of RanGTP-induced Rango-importin beta complex dissociation; Biochemical FRET Rango-importin beta, RanGTP-induced dissociation; O95149+P62826; Potency, µM (series often up to 46.1 µM), for the others: at the highest dose activity change, negative = inhibition; 340,000 tested, 0.071% active; active means falling FRET ratio curve, often poorly fitted, with flat reads before Ran was added; inconclusive means other falling curves, or compound fluorescence or quenching; inactive means flat or rising ratio curve;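 also: potency is read from the fitted curve at half-maximal effect; % of control where 0% means no effect; nearly all actives have a fitted effect of over 45% in size; -100% = wells without RanGTP and RCC1; the record marks most hits as doubtful in a second field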
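Compounds preincubate 5 min with complex of recombinant Rango and importin beta in PBS with 1 mM DTT. Ran (0.6 uM) loaded with 2 mM GTP plus 0.2 uM RCC1 starts dissociation; FRET is recorded 45 min later.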
Rango-impB inh: Rango-importin beta binding inhibition; 340,000 tested, 0.031% active; Potency, µM (titrated, usually from 92.2 µM), for the others: at the top dose inhibition of complex formation; AID 540263; Rango CFP/YFP FRET sensor + importin beta, 45 min; Q14974; active = rising FRET ratio curve, often small or poorly fitted; inconclusive = mostly compound fluorescence or quenching in the first reads; inactive = flat curves in all reads;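 also: potency is read from the fitted curve at half-maximal effect; 0% = DMSO wells and 100% = buffer wells lacking importin beta; nearly all actives have a fitted effect of over 15% in size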
Target sequence (Q14974 whole entry, looked up): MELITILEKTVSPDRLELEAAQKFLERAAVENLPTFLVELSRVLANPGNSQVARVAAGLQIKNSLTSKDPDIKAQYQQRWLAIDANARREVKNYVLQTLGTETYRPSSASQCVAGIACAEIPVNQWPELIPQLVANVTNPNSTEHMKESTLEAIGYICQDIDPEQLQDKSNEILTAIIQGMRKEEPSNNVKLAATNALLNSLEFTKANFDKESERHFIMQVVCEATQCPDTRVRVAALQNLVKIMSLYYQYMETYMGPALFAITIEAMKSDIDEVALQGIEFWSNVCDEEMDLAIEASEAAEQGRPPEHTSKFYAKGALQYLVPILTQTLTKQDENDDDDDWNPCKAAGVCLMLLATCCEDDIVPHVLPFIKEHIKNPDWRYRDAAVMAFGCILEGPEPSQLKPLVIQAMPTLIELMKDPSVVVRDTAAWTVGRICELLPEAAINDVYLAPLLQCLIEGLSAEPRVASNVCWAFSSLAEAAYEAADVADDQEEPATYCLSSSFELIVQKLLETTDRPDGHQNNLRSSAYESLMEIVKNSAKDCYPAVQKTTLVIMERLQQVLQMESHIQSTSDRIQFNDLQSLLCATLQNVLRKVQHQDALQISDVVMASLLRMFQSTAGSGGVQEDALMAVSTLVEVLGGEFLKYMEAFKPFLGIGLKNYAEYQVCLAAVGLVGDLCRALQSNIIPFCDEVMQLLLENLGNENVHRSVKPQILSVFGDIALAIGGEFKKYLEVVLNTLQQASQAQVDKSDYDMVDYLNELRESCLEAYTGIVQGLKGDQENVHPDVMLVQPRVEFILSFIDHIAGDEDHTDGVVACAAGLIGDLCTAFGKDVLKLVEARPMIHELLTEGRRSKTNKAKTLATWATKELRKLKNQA
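FRET biosensor Rango (snurportin 1 IBB between N-terminal EYFP and C-terminal Cerulean), 50 nM in PBS/1 mM DTT/0.02% Tween-20/0.1% BSA, preincubated 5 min RT with compound; 0.125 microM importin beta added, 45 min RT, CFP/YFP FRET ratio read.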
GLA inh pH 4.5: alpha-galactosidase A (human) inhibition, pH 4.5 | activity change, negative = inhibition, % at 105 µM | P06280 | purified enzyme, 4-MU-alpha-Gal fluorescence, pH 4.5 | 230,000 tested, under 10 active | AID 1467; inconclusive = small, poorly fitted or top-dose-only inhibition, or a rising curve; inactive = flat fitted curve, though single readings scatter; no compound was filed as active;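 also: 0% = full activity with enzyme and -100% = basal without enzyme; dose as in the result columns while the protocol names 77 µM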
miR-21 reporter: miR-21 reporter, rising signal; HeLa miR-21 FLuc reporter, luciferase, 48 h; Potency, µM (doses to about 38.3 µM), for inactives: at the highest dose reporter change, positive = more light; 340,000 tested, under 10 active; active = well fitted rising curve with a large enough effect; inconclusive = small, poorly fitted or top-dose-only effect; inactive = no such curve, though single readings can be large or run the other way;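 also: % of control where 0% means no effect; miR-21 action dims this reporter so a rising signal means less miR-21 action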
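Using DMEM plus 10% FBS, HeLa miR-21-FLuc cells are incubated with test compounds (final up to about 40uM) for 48 hours; firefly luciferase signal is then imaged following reagent-mediated lysis.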
* marks the source's active call; other numbers are inactive results; ? = inconclusive; · = no result given; & = joins results of further samples. These rows are one share of the data; count on the stated rates, not on these rows.

SMILES	Rango release inh	Rango-impB inh	GLA inh pH 4.5	miR-21 reporter
Cc1cc(C)nc(SCC(=O)Nc2ncc(Cc3cccc(Cl)c3Cl)s2)n1	23%	-3.3%	0	-4%
Cc1cc(C)c(C)c(S(=O)(=O)NCCN2CCOCC2)c1C	2%	4.0%	·	-3%
CCCCn1c(N)c(N(CC)C(=O)c2cccc(S(=O)(=O)N3CCN(C)CC3)c2)c(=O)[nH]c1=O	11%	-0.6%	·	·
Cn1ccc(C(=O)OCC(=O)Nc2cccc3ccccc23)n1	3%	9.6%	9	12%
Oc1ccc(-c2c(C3=CCCCC3)sc3ccccc23)cc1	16%	2.8%	·	-1%
Cn1cc(/C=N/NC(=O)c2cccc([N+](=O)[O-])c2)c2ccccc21	5%	-0.5%	-3	-19%
COc1ccccc1C(CNC(=O)CN(C)S(=O)(=O)c1ccc(C)cc1)N1CCCC1 (stereo unspecified)	4%	0.0%	·	·
O=C(c1c(F)cccc1F)N1CCCC(c2nc(-c3ccc(F)cc3)no2)C1 (stereo unspecified)	7%	-0.4%	·	-4%
N#CCCn1ncn(-c2ccccc2)c1=S	-2%	-2.2%	1	-5%
COc1ccc(-c2cc(C(F)(F)F)nc(SCCC(=O)Nc3cc(C)on3)n2)cc1	-3%	0.2%	10	-13%
CCn1cnnc1SCC(=O)NCC1COc2ccccc2O1 (stereo unspecified)	-31%	-7.1%	·	·
CCOc1cc(/C=C2\SC(=S)N(Nc3ccccc3)C2=O)ccc1O	?	17%	-4	-11%
O=C(COC(=O)/C=C/c1cccc(Cl)c1)Nc1ccc(N2CCOCC2)cc1	-19%	6.2%	·	·
O=C(Nc1cccnc1)c1ccc(S(=O)(=O)c2ccccc2)cc1	1%	-1.2%	1	3%
O=C1CCC(=O)N1CN(C(=O)c1ccco1)c1ccc(Cl)c(Cl)c1	-17%	4.1%	·	-7%
Cc1ccc(C(=O)Nc2sc(C(=O)N(C)C)c(C)c2C#N)cc1	-7%	0.0%	-3	-8%
COc1ccc(NC(=O)CSc2nnc(-c3cccs3)n2N)c(OC)c1	-18%	?	·	·
CCCCn1c(SCC(=O)Nc2ccccc2C(F)(F)F)nc2ccsc2c1=O	3%	-2.4%	-3	-6%
CN(Cc1ccc(F)cc1)C(=O)c1cccc(OCc2ccccc2)c1	-12%	-3.3%	·	-1%
CC(C)(C)c1ccc(S(=O)(=O)Nc2ccc(C(=O)N3CCCC3)cc2)cc1	40%	-0.8%	·	-4%
COc1ccc2oc(=O)c(-c3csc(Nc4ccc(O)cc4)n3)cc2c1	-11%	7.9%	-2	-44%
COc1ccc(/C(C)=N/Nc2nc(C)cc(-c3ccccc3)n2)cc1	10%	1.1%	·	·
COC(=O)c1sc(NC(=O)c2cc3c(s2)CCCC3)nc1C	-6%	0.3%	-5	-41%
Cc1cc(C(=O)NN=C2CCCCC2)c2ccccc2n1	-6%	-0.5%	3	16%
Cc1ccc(S(=O)(=O)N2CCC(=O)N(C(COCc3ccccc3)Cc3ccccc3)CC2)cc1 (stereo unspecified)	-3%	4.9%	-4	-2%
CSc1nsc(SC)c1C(=O)NCCNS(=O)(=O)c1ccc(C)cc1	-5%	3.9%	-13	-6%
CC(=O)NS(=O)(=O)c1ccc(NC(=O)CSc2ccc(C)cc2)cc1	7%	-0.8%	-3	3%
COCCCn1c(SCC(=O)Nc2cccc(C)n2)nnc1-c1ccco1	6%	-0.2%	8	-1%
NC(=O)c1ncc(C(F)(F)F)cc1Oc1cccc(C(F)(F)F)c1	-4%	-3.5%	4	0%
Cn1c2c(c(=O)n(C)c1=O)CN(Cc1ccc3c(c1)OCO3)CN2	15%	4.9%	1	-6%
COc1ccccc1/C=C/C(=O)Nc1ccc2c(c1)CCC2	13%	1.4%	-1	-59%
Cc1ncc(CO)c2cc(C(=O)Nc3ccccc3Cl)c(=Nc3cccc(C(N)=O)c3)oc12	-3%	-0.1%	·	0%
COC(=O)C1=NN(C(=O)c2ccc(C)cc2)C(O)(c2ccc(Cl)cc2)C1 (stereo unspecified)	12%	?	-4	-11%
CCN(CC)S(=O)(=O)c1ccc2[nH]cc(C(=O)NCCc3ccccc3)c(=O)c2c1	1%	1.8%	4	1%&26%
COC(=O)[C@@]1(Cc2ccc(OC)cc2)[C@@H]2C(=CC(=O)[C@H]2CC(=O)C(=O)N2CCCC2)CN1C(=O)c1ccccc1	-14%	5.2%	-11&-5	?
CCc1sc(C(=O)NCc2cc(C)n(C)n2)cc1Br	29%	4.5%	5	-13%
CN(C(=O)CN1C(=O)/C(=C/c2ccccc2Cl)SC1=S)C1CCS(=O)(=O)C1 (stereo unspecified)	19%	0.5%	·	2%
CC(C)(C)NNC(=S)Nc1cccc(C(F)(F)F)c1	0%	-2.1%	-4	-4%
O=C(C1CC(=O)N(c2ccccc2)C1)N1CCN(c2ccccc2)CC1 (stereo unspecified)	10%	0.6%	·	-2%
Nc1ccc2[nH]c(=S)[nH]c2c1	5%	-2.3%	·	·

Ordered by value in Rango-impB inh (high to low): some entries from above.
SMILES	Rango release inh	Rango-impB inh	GLA inh pH 4.5	miR-21 reporter
CCc1sc(C(=O)NCc2cc(C)n(C)n2)cc1Br	29%	4.5%	5	-13%
COc1ccccc1/C=C/C(=O)Nc1ccc2c(c1)CCC2	13%	1.4%	-1	-59%
CC(C)(C)NNC(=S)Nc1cccc(C(F)(F)F)c1	0%	-2.1%	-4	-4%

(further entries)
SMILES	Rango release inh	Rango-impB inh	GLA inh pH 4.5	miR-21 reporter
CC1SC(C)C(=O)N(CC(=O)NC2CCCCC2)C1=O (stereo unspecified)	-2%	0.9%	3	2%
COc1ccccc1C(=O)OCC#CCSc1nnc(-c2cccc3ccccc23)o1	-4%	1.2%	·	·
COc1ccccc1OC(C)C(=O)N1CC(=O)Nc2ccccc21 (stereo unspecified)	-2%	-0.6%	·	8%
COc1ccc(CCNCCN2CCOCC2)cc1	6%	-0.9%	·	0%
C=CCNC(=O)/C(C#N)=C/c1ccc2c(c1)OCCO2	3%	0.5%	8	-2%
Cc1cc(C)c(S(=O)(=O)N2CCOCC2)c(C)c1N(C)S(=O)(=O)c1ccccc1	3%	-3.1%	·	2%
Cc1ccc(OCc2nc(C#N)c(N3CCCCC3)o2)cc1	-7%	0.4%	-2	-27%
CCCCOC(=O)CSc1nnc(-c2ccc(Cl)cc2Cl)o1	1%	-0.3%	-10	5%
COc1ccc(-c2csc(NC(=O)Cc3cc(OC)c(OC)c(OC)c3)n2)cc1OC	-16%	4.1%	·	25%
CCOC(=O)Cn1c(=O)cc(C)c2ccccc21	4%	-1.1%	-1	-4%

19 entries from above in a different format:
Sequence of screens: Rango release inh | Rango-impB inh | GLA inh pH 4.5 | miR-21 reporter
Cc1cc(C)nc(SCC(=O)Nc2ncc(Cc3cccc(Cl)c3Cl)s2)n1
→ 23% | -3.3% | 0 | -4%
Cc1cc(C)c(C)c(S(=O)(=O)NCCN2CCOCC2)c1C
→ 2% | 4.0% | · | -3%
CCCCn1c(N)c(N(CC)C(=O)c2cccc(S(=O)(=O)N3CCN(C)CC3)c2)c(=O)[nH]c1=O
→ 11% | -0.6% | · | ·
Cn1ccc(C(=O)OCC(=O)Nc2cccc3ccccc23)n1
→ 3% | 9.6% | 9 | 12%
Oc1ccc(-c2c(C3=CCCCC3)sc3ccccc23)cc1
→ 16% | 2.8% | · | -1%
Cn1cc(/C=N/NC(=O)c2cccc([N+](=O)[O-])c2)c2ccccc21
→ 5% | -0.5% | -3 | -19%
COc1ccccc1C(CNC(=O)CN(C)S(=O)(=O)c1ccc(C)cc1)N1CCCC1 (stereo unspecified)
→ 4% | 0.0% | · | ·
O=C(c1c(F)cccc1F)N1CCCC(c2nc(-c3ccc(F)cc3)no2)C1 (stereo unspecified)
→ 7% | -0.4% | · | -4%
N#CCCn1ncn(-c2ccccc2)c1=S
→ -2% | -2.2% | 1 | -5%
COc1ccc(-c2cc(C(F)(F)F)nc(SCCC(=O)Nc3cc(C)on3)n2)cc1
→ -3% | 0.2% | 10 | -13%
CCn1cnnc1SCC(=O)NCC1COc2ccccc2O1 (stereo unspecified)
→ -31% | -7.1% | · | ·
CCOc1cc(/C=C2\SC(=S)N(Nc3ccccc3)C2=O)ccc1O
→ ? | 17% | -4 | -11%
O=C(COC(=O)/C=C/c1cccc(Cl)c1)Nc1ccc(N2CCOCC2)cc1
→ -19% | 6.2% | · | ·
O=C(Nc1cccnc1)c1ccc(S(=O)(=O)c2ccccc2)cc1
→ 1% | -1.2% | 1 | 3%
O=C1CCC(=O)N1CN(C(=O)c1ccco1)c1ccc(Cl)c(Cl)c1
→ -17% | 4.1% | · | -7%
Cc1ccc(C(=O)Nc2sc(C(=O)N(C)C)c(C)c2C#N)cc1
→ -7% | 0.0% | -3 | -8%
COc1ccc(NC(=O)CSc2nnc(-c3cccs3)n2N)c(OC)c1
→ -18% | ? | · | ·
CCCCn1c(SCC(=O)Nc2ccccc2C(F)(F)F)nc2ccsc2c1=O
→ 3% | -2.4% | -3 | -6%
CN(Cc1ccc(F)cc1)C(=O)c1cccc(OCc2ccccc2)c1
→ -12% | -3.3% | · | -1%

Continuation.
SMILES	Rango release inh	Rango-impB inh	GLA inh pH 4.5	miR-21 reporter
CCOC(=O)NC(Nc1sc2c(c1C(N)=O)CCCC2)(C(=O)OCC)C(F)(F)F (stereo unspecified)	-14%	2.3%	-4	-1%
O=C(NCc1ccc(F)cc1)C1CC(=O)N(CCc2ccccc2)C1 (stereo unspecified)	4%	-1.0%	3	0%
O=C(/C=C\c1ccc2c(c1)OCO2)CC1(O)C(=O)Nc2ccccc21 (stereo unspecified)	9%	1.0%	-9	20%
Cc1cc(-c2n[nH]c(=S)n2Cc2ccccc2)cs1	-17%	4.4%	-2	?
O=C1c2ccccc2S(=O)(=O)c2cc(C(=O)N(c3ccccn3)c3ccccn3)ccc21	-13%	?	1	-26%
Cc1cccc(NC(=O)CNC(=O)c2cc(C3CC3)nn2-c2ccccc2)c1C	-13%	-0.1%	·	·
COc1ccc(C2=Nn3c(nnc3-c3ccccc3F)SC2)cc1OC1CCOC1 (stereo unspecified)	3%	0.2%	·	·
CS(=O)(=O)c1nc(S(=O)(=O)c2ccc(Cl)cc2)c(N2CCN(CCO)CC2)s1	?	1.3%	·	8%
COc1ccc(-c2nc(C#N)c(NCc3ccco3)o2)cc1	-1%	-2.5%	-3	-91%
O=S(=O)(c1ccc(Cl)cc1)c1cc(O)ccc1O	30%	0.8%	·	13%
CC1=CC2=NC(=O)CC(C)(C(=O)N(CC(=O)NC(C)C)C3CCCC3)N2C=C1 (stereo unspecified)	·	·	5	-2%
C=C[C@@]1(C)CCC(/C(C)=C/C=C/C(C)(C)O)C[C@@H]1C(=C)C (stereo partly specified)	29%	0.4%	·	·
CCOC(=O)CC(=O)CSc1nc2ccc(C)cc2cc1C#N	?	?	-7	-40%
C=CCN(CC=C)S(=O)(=O)c1ccc2nc(NC(=O)C3CCCO3)sc2c1 (stereo unspecified)	5%	-0.5%	0	15%
CC(Sc1nc(-c2ccccc2)cs1)C(=O)Nc1ccc(Cl)cn1 (stereo unspecified)	0%	0.2%	3	1%
CCN(C(=O)C12CC3CC(CC(C3)C1)C2)C1CCS(=O)(=O)C1 (stereo unspecified)	17%	0.2%	·	·
O=C1CCC2CCCCC2(O)O1 (stereo unspecified)	1%	-0.9%	0	-1%
Clc1ccc(-n2nnc(-c3cccnc3Cl)n2)cn1	16%	-0.9%	11	-48%
S=C(Nc1ccc(-c2nc3ccccc3[nH]2)cc1)Nc1cccnc1	12%	-0.7%	·	9%
COc1ccccc1NS(=O)(=O)c1cc(NC(=O)C2CCC2)ccc1N1CCCCC1	7%	-2.4%	-10	18%
CCCCNC(=S)NCc1ccc2[nH]c(C)cc2c1	4%	0.0%	3	-8%
CC(C)(C)c1nc2ccccc2c2nnc(SCC(=O)Nc3nc4ccccc4s3)n12	2%	-4.6%	0	-2%
